# Assay outcomes: PubChem, ICCB-Longwood Screening Facility, Harvard Medical School
# Mtb MbtI inh = MbtI salicylate synthase inhibitors, primary screen, biochemical, fluorescence intensity | P9WFX0 | purified MbtI enzyme, fluorescence intensity read-out | inhibition, %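 (about 17 µg/mL by stock and volumes)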 | 100,000 tested, 0.89% active;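 active means above 50% in both replicates, above 80% if mildly self-fluorescent; inactive means the rest, strongly fluorescent compounds included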;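 further: 0% = mean of negative and 100% = mean of positive controls; one replicate is shown; some compounds called inactive have numbers as strong as hits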
# Target sequence (P9WFX0 whole entry, looked up): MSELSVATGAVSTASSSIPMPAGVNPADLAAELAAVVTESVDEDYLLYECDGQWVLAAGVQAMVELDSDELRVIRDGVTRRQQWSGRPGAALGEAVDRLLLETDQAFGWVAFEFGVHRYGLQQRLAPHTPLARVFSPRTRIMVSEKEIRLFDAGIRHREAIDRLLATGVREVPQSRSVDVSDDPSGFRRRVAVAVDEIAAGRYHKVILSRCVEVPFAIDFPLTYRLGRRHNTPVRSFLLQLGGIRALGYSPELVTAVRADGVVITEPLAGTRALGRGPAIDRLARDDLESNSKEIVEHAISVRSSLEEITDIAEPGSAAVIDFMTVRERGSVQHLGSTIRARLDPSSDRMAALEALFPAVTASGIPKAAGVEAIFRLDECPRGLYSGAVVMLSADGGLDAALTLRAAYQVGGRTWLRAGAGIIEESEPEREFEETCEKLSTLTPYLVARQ
# MenB inh = M. tuberculosis MenB inhibitors, primary screen, biochemical, absorbance; MenB enzyme assay, absorbance read-out; some hits fall short of the stated cut; inhibition, %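 (about 12 µg/mL by stock and volumes)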; 100,000 tested, 0.43% active;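 active means mean of two replicates above 30%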;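 further: 0% = no compound and 100% = wells with inactive enzyme; the first replicate is given; strong numbers were not always called active; inactives centre near -10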
# Target sequence (P9WNP5 whole entry, looked up): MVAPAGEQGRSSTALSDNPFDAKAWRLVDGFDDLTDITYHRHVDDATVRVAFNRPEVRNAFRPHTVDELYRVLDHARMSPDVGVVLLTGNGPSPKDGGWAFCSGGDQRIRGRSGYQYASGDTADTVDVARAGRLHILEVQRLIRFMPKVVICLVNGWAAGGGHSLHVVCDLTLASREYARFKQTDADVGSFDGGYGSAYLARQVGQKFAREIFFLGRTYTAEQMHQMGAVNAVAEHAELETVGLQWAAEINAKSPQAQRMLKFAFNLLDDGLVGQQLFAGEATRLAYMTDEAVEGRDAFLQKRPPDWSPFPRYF
# PV pol inh = poliovirus RdRp elongation inhibitors, primary screen, biochemical, fluorescence polarization, total intensity; Genome polyprotein (Poliovirus type 1 (strain Mahoney)), P03300; poliovirus polymerase elongation; stronger effect = lower value; % elongation, % (compound at 16.7 µg/mL); 150,000 tested, 0.66% active; in the data active means % elongation below about 90%; further: some results filed as inactive read as strong as hits
# PV pol inh intensity = also measured in PV pol inh; calls as there; % elongation; measured here: total intensity read-out; formula for this scale not given here;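 total fluorescence in place of polarization; lower means less elongation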
# Active calls of the source: *; nt = not tested or not shown.
# Values in the order: PV pol inh, PV pol inh intensity, MenB inh, Mtb MbtI inh
Cc1cc(CNC(=O)CSc2nnc3ccccn23)cc(C)c1O
  99, 95, 8, 8
CCC1(C)CC(/C=N/O)CCO1 (stereo not drawn)
  99, 101, 8, -10
N#Cc1cccc(OCc2ccccc2F)c1
  100, 98, -28, -5
Clc1ccc(OCc2nc(-c3ccccc3)no2)cc1
  103, 106, nt, -2
O=C1CC(NNc2ccccc2)C(=O)N1c1cccc(Cl)c1 (stereo not drawn)
  102, 101, -24, 17
Cc1cc(NC(=O)NC2CCN(Cc3ccccc3)CC2)c(C(F)(F)F)o1
  101, 100, 9, -5
N#Cc1ccsc1NC(=O)CN1CCc2ccccc2C1
  116, 110, -11, -3
Cc1ccc2c(c1)c1c(n2CCN(Cc2ccccc2)Cc2ccccc2)C(=O)CCC1
  103, 108, -29, 19
COc1ccc2cc(CN(CC3COCCO3)S(=O)(=O)c3c(C)cc(C)cc3C)c(=O)[nH]c2c1 (stereo not drawn)
  100, 101, 12, nt
COc1ccccc1N(Cc1ccccc1O)C(=O)COc1ccccc1
  109, 95, -39, -10
CNc1nc(NC(C)(C)C)nc(OCC(F)(F)F)n1
  99, 103, 14, 0
Cc1nn(-c2ccccc2)c(C)c1C(=O)NCC(c1cccs1)N(C)C (stereo not drawn)
  111, 103, -31, -12
CS(=O)(=O)NN=C1CCCCC1
  100, 103, -28, -22
CCOc1ccc(-c2cc(C(=O)NCC3COc4ccccc4O3)c3ccccc3n2)cc1 (stereo not drawn)
  102, 105, -5, 103
CCc1ccc(C2=Nn3c(C)nnc3SC2)cc1
  93, 102, 11, nt
COc1ccc(C2SCCN2S(C)(=O)=O)cc1OC (stereo not drawn)
  99, 97, -7, 12
Cc1cc(NC(=O)COC(=O)C2=NNC(=O)CC2)no1
  97, 106, 2, 5
Cc1onc(-c2ccccc2)c1-c1csc(CS(=O)(=O)C(C)(C)C)n1
  101, 103, 11, -2
CNC(=S)NNS(=O)(=O)c1ccc(C)cc1
  101, 95, -5, 19
Cc1noc(C)c1C(=O)OC(C)C(=O)c1ccc(C(C)(C)C)cc1 (stereo not drawn)
  101, 100, -12, -14
O=C(CCC(=O)c1ccc(F)cc1)Nc1cccc(Br)c1
  104, 112, nt, -12
CC1=C(C#N)C(c2ccc(OCc3ccccc3)cc2)C(C#N)=C(C)N1
  105, 97, -6, 64
Cc1cc(NC(=O)CC(C)(C)C)nc2c1c(=O)oc1ccccc12
  101, 108, -7, 8
Cc1nc(NCCc2ccccc2)sc1C(=O)N(C)C
  101, 96, 7, 16
COC(=O)C1=C(C)NC2=C(C(=O)c3ccccc32)C1c1ccc(OC)cc1 (stereo not drawn)
  101, 102, -21, -38
O=C(CSc1ncn(-c2ccccc2)n1)NCC1CCCO1 (stereo not drawn)
  100, 103, 8, -4
Cc1ccc(C)c(S(=O)(=O)Nc2ccccc2C(=O)OCC(=O)c2cc(C)n(Cc3ccco3)c2C)c1
  nt, nt, 1, -2
O=C(c1cnc2c(c1)c(=O)nc1ccccn12)c1ccccc1O
  103, 103, -22, -22
CCCCCC(=O)N1CC(C)OC(C)C1 (stereo not drawn)
  100, 101, -2, -16
CCCNc1ncnc2c1cnn2-c1ccccc1
  104, 104, -14, -3
COc1cc(C(=O)N2CCN(Cc3ccccc3C(F)(F)F)CC2)cc(OC)c1OC
  101, 100, 8, -8
COc1ccc(NC(=O)COC(=O)CC2Sc3ccccc3NC2=O)cc1 (stereo not drawn)
  105, 107, 1, -1
CCOc1cc(CO)ccc1OCC(=O)N1CCCCC1
  107, 114, -6, nt
CCOC(=O)C1=C(CN2CCc3ccccc32)NC(=O)NC1c1ccccc1 (stereo not drawn)
  101, 103, -18, -6
CCc1ccccc1NC(=O)CSc1nc2ccccc2n1CC(=O)N(C)C
  99, 102, 6, -2
O=C(Cn1nnc(-c2cccc(Cl)c2)n1)N1N=C(c2cccs2)CC1c1cccs1 (stereo not drawn)
  107, 106, -1, -3
Cc1c(-c2ccccc2)[n+](=O)c(-c2ccc(Br)cc2)c(C)n1[O-]
  102, 103, -13, 6
CS(=O)(=O)N1CCCC(C(=O)N2CCc3ccccc3C2)C1 (stereo not drawn)
  101, 102, -23, -23
O=C(NCc1ccco1)C1CC(c2ccccc2O)=NO1 (stereo not drawn)
  102, 103, 14, 0
CSc1cccc(-n2c(C)cc(C(N)=O)c2C)c1
  100, 98, 10, -36

# Single records (already shown).
# O=C(Cn1nnc(-c2cccc(Cl)c2)n1)N1N=C(c2cccs2)CC1c1cccs1 (stereo not drawn) in the list: PV pol inh: 107; PV pol inh intensity: 106; MenB inh: -1; Mtb MbtI inh: -3
# Cc1nc(NCCc2ccccc2)sc1C(=O)N(C)C in the list: PV pol inh: 101; PV pol inh intensity: 96; MenB inh: 7; Mtb MbtI inh: 16

# New compounds follow:
# Values in the order: PV pol inh, PV pol inh intensity, MenB inh, Mtb MbtI inh
CCN(CC)c1ccc(-n2cccc2)cc1
  110, 115, 11, -17
CCOC(=O)C1=NN(c2ccccc2)C2c3cc(OC)c(OC)cc3CCN12 (stereo not drawn)
  99, 89, 13, -1
On1ccccc1=S
  97, 219, 12, 92*
COC(=O)c1c(C)oc2ccc(OCC(=O)OC(C)(C)C)cc12
  100, 103, 9, 0
O=C(NCC1CCCO1)c1cnc(N2CCCC2)nc1 (stereo not drawn)
  102, 103, -16, 15
FC(F)(F)c1nnc2c3ccccc3c(Cl)nn12
  100, 101, 22, -7
CCn1c2ccccc2c2cc(CNCCc3ccc(Cl)cc3)ccc21
  102, 105, -14, 3
CCCCn1c(COc2ccc(Cl)c(C)c2)nc2cc(S(N)(=O)=O)ccc21
  113, 128, -9, -5
CCOC(=O)c1ccccc1OC(=O)c1c(F)c(F)c(F)c(F)c1F
  97, 96, -14, 6
Cc1cc(N2CCN(C)CC2)nc(SC(C(=O)O)c2ccccc2)n1 (stereo not drawn)
  104, 104, -14, -10
CCCCOC(=O)Sc1nc2ccccc2o1
  97, 101, -62, 91*
Cc1c(C(=O)NCCN2CCN(C)CC2)sc2nc3n(c(=O)c12)CCCCC3
  103, 97, -29, 1
S=c1nc(C2CCCCC2)[nH][nH]1
  101, 100, -7, nt
CC(=O)NCCc1nc2ccccc2n1CCOc1ccccc1
  104, 107, 4, -13
Cc1nn(-c2ccc(F)cc2)c2sc(C(=O)N(C)C3CCN(C)CC3)cc12
  97, 104, nt, -2
COc1ccc(CCN2C(=O)/C(=C/C3CC=CCC3)SC2=S)cc1OC (stereo not drawn)
  101, 99, -9, 5
CCOc1ccccc1C(=O)N[C@H](C(=O)Nc1c(N)nc(N)n(C)c1=O)C(C)C
  92, 119, -19, -3
Cc1onc(-c2ccccc2)c1C(=O)N1CCCN2C(=O)c3ccccc3C21 (stereo not drawn)
  108, 100, -11, 0
CC(=O)Nc1ccc(S(=O)(=O)n2cnc3cc(C)c(C)cc32)cc1
  99, 96, -22, -3
N/C(=C\C(=O)c1c(O)c(F)c(F)c(F)c1F)C(=O)O
  98, 102, -33, nt
OC(c1ccccc1)c1nc2ccccc2[nH]1 (stereo not drawn)
  103, 102, 4, nt
CCc1ccc(OCc2ccc(C(=O)O)cc2)cc1
  100, 104, nt, -6
CCc1ccc(NC(=O)CCCn2nc(CC)n3c(cc4occc43)c2=O)cc1
  102, 98, -34, -6
Cc1cc(C(=O)N2CCN(Cc3ccc4c(c3)OCO4)CC2)nn1C
  101, 102, 8, -12
Cc1cccc(CN2C(=O)/C(=C\c3ccc(C(=O)N4CCN(C(=O)c5ccco5)CC4)cc3)Oc3ccccc32)c1
  100, 101, -5, 54
O=C(CC12CC3CC(CC(C3)C1)C2)NCc1ccc2c(c1)OCO2
  108, 114, -4, -4
CC(=O)Nc1ccc(C)c(NC(=S)Nc2ccc(Cl)c(Cl)c2)c1
  102, 100, -11, -28
CC1Cc2nn(-c3ccccc3)c(-c3cccnc3)c2C(=O)C1C (stereo not drawn)
  105, 108, -14, nt
O=C1NC2(CCc3ccccc32)C(=O)N1Cc1ncc(-c2ccccc2)o1 (stereo not drawn)
  105, 97, -23, -6
CCSc1nc2sc3c(c2c(=O)n1CC1CCCO1)CCC3 (stereo not drawn)
  102, 105, 0, -2
C=CCN(CC=C)C(=O)C1CCN(S(=O)(=O)c2ccc(-n3cnnn3)cc2)CC1
  104, 99, -51, -8
O=C(CSc1c2c(nc3ccccc13)CCC2)N1CCCC1
  103, 99, 5, 11
CC(=O)Oc1ccc(C(O)(C(F)(F)F)C(F)(F)F)cc1
  108, 99, -4, nt
Cc1c2cnn(-c3ccccc3)c(=O)c2c(C)n1CCCC(=O)NCc1ccccn1
  103, 104, -8, 3
O=C(/C=C/c1ccc(Cl)cc1Cl)Nc1cccc2cnccc12
  99, 99, nt, -9
NC(=NCCC[C@H](N)C(=O)O)N[N+](=O)[O-]
  101, 100, -13, -18
COC(=O)c1scc(S(C)(=O)=O)c1N=CN(C)C
  106, 106, -13, -12
CC1(C)CC(NCc2ccco2)=CC(=C(C#N)C#N)C1
  103, 104, nt, -8
O=C1/C(=C/c2c(NCC3CCCO3)nc3ccccn3c2=O)SC(=S)N1C1CCCCC1 (stereo not drawn)
  114, 118, 1, 14
CC(C)(C)/C(O)=C/c1nc2cc(Cl)ccc2oc1=O
  102, 101, 28, 10
NNC(=O)CCCNc1ccc(Cl)cc1
  105, 103, -6, nt
CCOC(=O)CN1c2ccccc2NC1C(C#N)c1ccc(OC)cc1 (stereo not drawn)
  101, 105, -7, -5
COc1ccccc1N/C=C/C(=O)c1ccccc1
  100, 103, -243, 4
O=C(Nc1c(-c2cccs2)nc2ccccn12)c1cccc(C(F)(F)F)c1
  101, 103, -5, -4
O=C(COc1ncnc2ccccc12)NC(=O)NC1CCCCC1
  104, 105, -18, 26
COC(=O)c1c(N2C(=O)CCC2=O)sc2c1CCCC2
  101, 104, -2, -21
Cc1cccc(NC(=O)c2cccc(C)c2)c1
  101, 101, -60, -3
N#Cc1ccccc1NCC(=O)N1CCN(S(=O)(=O)c2ccccc2)CC1
  105, 102, -19, -26
C/C(O)=C(\C#N)c1nc2ccccc2[nH]1
  103, 102, 1, -1
CC(C)c1ccc(NC(=O)/C=C/c2ccco2)cc1
  100, 101, -2, 14
N#CCc1c(C#N)c(N)nc(N2CCN(S(=O)(=O)c3ccccc3)CC2)c1C#N
  113, 113, -15, -4
COc1ccc(C2SC(C)C(=O)N2CCCn2ccnc2)cc1OC (stereo not drawn)
  96, 87, -43, 13
CCOC(=O)c1cnc2c(c(C3CC3)nn2C)c1N1CCCCC1
  101, 101, -8, -5
CNC(=S)N(Cc1ccco1)C1CC(=O)N(c2ccccc2)C1=O (stereo not drawn)
  99, 101, -23, 8
O=C(COc1ccc(Cl)cc1)OCC(=O)N1CCc2ccccc2C1
  99, 105, nt, -10
CCc1ccc(C(N)=S)cc1
  103, 97, 11, 27
O=C(O)C1C2CCC(C2)C1C(=O)N1CCN(c2ncccn2)CC1 (stereo not drawn)
  101, 101, -19, 0
CN1C(=O)c2oc3ccccc3c(=O)c2C1c1ccccc1 (stereo not drawn)
  104, 102, -96, -5
Cc1cc2cc(CCNC(=O)/C=C\c3ccccc3)c(=O)[nH]c2cc1C
  99, 102, -1, -2
O=C(Cc1ccsc1)OCc1csc(-c2ccccc2)n1
  95, 96, 0, -12

# Going on with the list:
# Values in the order: PV pol inh, PV pol inh intensity, MenB inh, Mtb MbtI inh
CC(C)(C)c1cc(N/C(=N\S(=O)(=O)c2ccccc2)c2ccccc2)no1
  100, 103, -10, 3
c1ccc(OCC2CCNCC2)nc1
  105, 102, -81, -6
O=C(NCC1COc2ccccc2O1)c1ccc(S(=O)(=O)N2CCCCC2)cc1 (stereo not drawn)
  103, 93, -1, 6
CCNC(=O)c1ccc(C)c(S(=O)(=O)N2CCCC2)c1
  105, 99, -22, -16
O=C(CCc1nc2ccccc2c(=O)[nH]1)Nc1ccccc1C(=O)NC1CC1
  107, 107, -5, -1
COc1ccc2nc(N3CCOCC3)[nH]c2c1
  101, 96, nt, -3
C=CCN=C(N)SCc1nc2ccccc2c(=O)[nH]1
  111, 110, -26, 60
CCCCC1=NN2C(=N)/C(=C\c3cccn3-c3ccc(C)cc3C)C(=O)N=C2S1
  102, 104, -20, -4
CN1C(C(=O)NC(C)(C)C)=CC(c2ccc(F)cc2)=NS1(=O)=O
  106, 107, -14, -8
CCC(C)NC(=O)Cn1ncc2c(=O)oc3ccc(C)cc3c21 (stereo not drawn)
  103, 103, -18, -3
Cc1ccccc1NC(=O)C1C2c3ccccc3OC1(C)N=C1SCC(=O)N12 (stereo not drawn)
  100, 99, -6, nt
CN1CCC(N(C)Cc2cc(C(C)(C)C)c(O)c(C(C)(C)C)c2)CC1
  101, 100, 7, 5
O=C1C=C(SCc2c(F)cccc2Cl)CC(c2ccccc2)C1 (stereo not drawn)
  105, 112, -3, -12
CCOC(=O)c1cc(C(=O)O)nn1C
  101, 106, 28*, -2

# Retrieved by structure from above, 5 records:
# Values in the order: PV pol inh, PV pol inh intensity, MenB inh, Mtb MbtI inh
Cc1ccccc1NC(=O)C1C2c3ccccc3OC1(C)N=C1SCC(=O)N12 (stereo not drawn)
  100, 99, -6, nt
c1ccc(OCC2CCNCC2)nc1
  105, 102, -81, -6
C=CCN=C(N)SCc1nc2ccccc2c(=O)[nH]1
  111, 110, -26, 60
CCOC(=O)c1cc(C(=O)O)nn1C
  101, 106, 28*, -2
O=C(CCc1nc2ccccc2c(=O)[nH]1)Nc1ccccc1C(=O)NC1CC1
  107, 107, -5, -1
